# Bfl-1 A1 inh – inhibitors of the anti-apoptotic protein A1, read as caspase activation | AID 2462 | 0.066% of 330,000 active | MEF A1-2A-BIM cells, Caspase-Glo 3/7 luminescence, 3 h; percent of clofoctol response, vehicle zero | caspase activation, % (no concentration beside the values);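 active = over half of replicate activation scores above 10%, or exactly half above 10 with the replicate mean above 10; inconclusive = replicate mean below 10 yet half the replicates above 10; inactive = over half of replicates below 10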;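 note: wells of about 30 µL received 50 nL stock; many hits fall short of the cut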
# Beta apoptosis – beta cell apoptosis inhibition; INS-1E cytokine-induced death, ATP luminescence, 48 h; percent of positive-control rescue, neutral wells zero; protection from apoptosis, % (test concentration not listed); 0.8% of 300,000 active;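 active = all replicates at 75% or more, or half of them and the mean; inconclusive = half reach 75% but not the mean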;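 note: 0% = cytokine-treated negative control wells and 100% = positive control rescue; higher means more ATP so stronger rescue from cytokine killing; wells of about 40 µL received 100 nL stock; the first replicate is given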
# LANA-H2A inh – blocks KSHV LANA binding to histone H2A/H2B; Q9QR71; cell-free LANA-H2A/H2B peptide, fluorescence polarization; inhibition, % (no concentration beside the values); 0.6% of 320,000 active; AID 2629; in the data active = inhibition mostly above about 10%, no sharp cut-off; inactive = mostly below about 6.7%;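 note: stock transfer was 7.5 nL into about 10 µL; 0% = median of vehicle wells and 100% = median of positive control wells; one replicate is shown; the record names a cut of 25% in any replicate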
# RanGTP-Impb inh – inhibitors of RanGTP-importin-beta interaction, primary screen, biochemical, FRET, CFP-Ran, YFP-importin-beta, homogeneous. cell-free CFP-Ran/YFP-importin-beta FRET ratio. inhibition, % (test concentration not listed). 1.1% of 300,000 active;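 active = most replicates above 15%; inconclusive = exactly half above 15%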;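 note: 0% = DMSO wells and 100% = Ran loaded with GDP instead of GTP; wells of about 40 µL received 100 nL stock; the first replicate is given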
# UCH37 inh – human UCH37 deubiquitinating enzyme inhibition. Q9Y5K5. purified proteasome/UCH37, Ub-AMC cleavage fluorescence. inhibition, % (concentration not given with the values). 0.33% of 330,000 active. AID 588478;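 active = mean of two replicates above 20%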;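 note: 0% = compound-free wells with enzyme and 100% = wells lacking proteasome; stock transfer was 100 nL into about 20 µL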
# Target sequence (Q9Y5K5 whole entry, looked up): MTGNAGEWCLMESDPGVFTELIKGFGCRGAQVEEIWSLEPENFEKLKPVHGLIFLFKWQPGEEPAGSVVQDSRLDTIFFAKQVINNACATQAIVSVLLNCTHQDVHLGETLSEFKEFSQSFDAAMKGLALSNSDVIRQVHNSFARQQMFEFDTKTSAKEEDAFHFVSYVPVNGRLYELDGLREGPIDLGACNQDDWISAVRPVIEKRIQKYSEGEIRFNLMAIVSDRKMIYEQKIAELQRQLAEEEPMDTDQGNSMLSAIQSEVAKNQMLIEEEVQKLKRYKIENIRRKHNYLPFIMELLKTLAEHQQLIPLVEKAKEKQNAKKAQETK
#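 Assay system: Proteasome-bound UCH37. Buffer or medium: pH 7.4 Tris-HCl (50 mM) with ovalbumin, ATP-MgCl2, DTT. Incubation: 30 min preincubation with enzyme, 25 min cleavage at room temperature. Measured by: fluorescence, ex 355 nm, em 460 nm. Read-out basis: percent inhibition. Control set: wells without proteasome as full block, compound-free enzyme plus substrate as uninhibited.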
# Calb FLC – affects C. albicans growth with fluconazole; C. albicans CaCi-2 (fluconazole-resistant clinical isolate) + fluconazole, Alamar Blue growth, 48 h; growth inhibition, % (concentration not given with the values); 0.57% of 300,000 active;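 active = most replicates above 75%; inconclusive = exactly half above 75%; inactive = most below 75%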;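 note: all wells also contain fluconazole at 8 µg/ml as a sub-toxic cotreatment; 0% = median of DMSO wells and 100% = median of geldanamycin control wells; wells of about 8 µL received 7.5 nL stock; the first replicate is given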
# Beta2AR agonist – agonists of human beta-2 adrenergic receptor inducing internalization; Am2.2-beta2AR cells, FAP receptor internalization, flow cytometry; reference of the scale not given here; response, % (test concentration not listed); 0.43% of 340,000 active; AID 504454;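 active = response above a set limit, near 3 SD of response in nonfluorescent compounds, cut at about 42% in these data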;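 note: stock transfer was 100 nL into about 11 µL; a reference agonist was the positive control; negative values mostly stem from fluorescent compounds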
# Target sequence (P07550 whole entry, looked up): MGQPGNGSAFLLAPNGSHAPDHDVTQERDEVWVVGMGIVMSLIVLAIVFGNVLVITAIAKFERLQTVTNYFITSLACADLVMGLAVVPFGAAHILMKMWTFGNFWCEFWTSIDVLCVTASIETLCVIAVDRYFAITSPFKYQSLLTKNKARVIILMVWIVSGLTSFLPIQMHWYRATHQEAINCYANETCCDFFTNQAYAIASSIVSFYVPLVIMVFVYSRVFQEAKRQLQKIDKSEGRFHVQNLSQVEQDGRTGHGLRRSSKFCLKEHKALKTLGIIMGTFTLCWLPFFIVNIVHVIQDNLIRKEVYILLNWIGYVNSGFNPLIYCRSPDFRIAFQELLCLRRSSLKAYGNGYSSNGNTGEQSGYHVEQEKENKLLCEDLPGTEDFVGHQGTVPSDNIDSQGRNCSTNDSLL
# T cruzi repl – T. cruzi replication inhibition | AID 1885 | inhibition, % (no concentration beside the values) | T. cruzi beta-gal in NIH3T3, luminescence, 90 h | 1.4% of 300,000 active;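 active = mean inhibition across valid replicates above about 55%, limit read from the data; inconclusive = mean below that limit but half or more replicates reach it; inactive = mean below it, under half of replicates reach it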;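 note: signal also drops with host cell toxicity which is not excluded here; 0% = plate median of DMSO wells and 100% = zero luminescence signal; higher percent means less beta-gal luminescence so fewer parasites; stock transfer was 50 nL into about 50 µL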
# Numbers without * were called inactive; ? = inconclusive; . = not tested or not shown. No enrichment for hits, and some 4.3% of all compounds hit somewhere here.
item	SMILES	Bfl-1 A1 inh	Beta apoptosis	LANA-H2A inh	RanGTP-Impb inh	UCH37 inh	Calb FLC	Beta2AR agonist	T cruzi repl
1	CC(=O)Nc1ccc(S(=O)(=O)N2CCN(CC(O)COc3ccc4ccccc4c3)CC2)cc1 (stereo not given)	-0.3	28.6	-3.7	3.6	2.5	-4.5	-0.7	-11.3
2	O=C(N/N=C/c1ccc(Br)s1)c1ccccc1[N+](=O)[O-]	0.8	0.1	3.9	3.3	.	-15.4	7.9	7.5
3	Cc1ccc(/C=N/NC(=O)c2ccncc2)cc1	-0.4	0.3	1.3	3.5	.	4.0	-6.9	-8.0
4	COc1cccc(-c2nnn(CC(=O)N3CCCCC3)n2)c1	-0.4	-1.7	16.2	-9.3	-2.1	-0.8	-3.3	1.2
5	Nc1ccccc1C(=O)N1CCCC1	0.8	.	2.3	7.7	-2.2	0.6	6.0	3.1
6	O=C(CN(Cc1ccc(Br)cc1)S(=O)(=O)c1ccccc1)NCC1CCCO1 (stereo not given)	0.0	.	-8.8	2.5	2.8	-4.6	4.9	11.6
7	COc1ccc(C(=O)C(C)[n+]2ccc(C)c3ccccc32)cc1[N+](=O)[O-] (stereo not given)	0.3	1.0	-0.1	-22.9	3.2	-11.7	-275.3	47.8
8	CCCCCCCC(=O)N1CCN(c2cc3c(cc2F)c(=O)c(C(=O)O)cn3CC)CC1	-1.4	4.1	-2.0	1.3	-174.4	3.3	7.9	-4.4
9	C/C(=N/NC(=O)CNC(=O)c1cccs1)c1ccc(Cl)cc1	0.0	-2.2	-2.0	4.6	.	-32.7	-9.4	-12.1
10	CCOc1ccc(N2CC(NC(=O)c3ccc4ccccc4c3)CC2=O)cc1 (stereo not given)	-0.2	0.9	0.6	2.3	-2.1	-2.9	-0.6	7.7
11	Cc1ccc(NC(=O)CSC2=NN3CCCC(=O)N=C3S2)cc1Cl	-0.7	-5.3	-1.9	0.3	-0.2	-10.9	-9.8	-1.8
12	CN(CCOc1ccccc1)CC(=O)Nc1ccc(Br)cc1F	0.1	0.9	0.0	3.9	-0.7	3.1	3.7	15.0

# Continuation:
item	SMILES	Bfl-1 A1 inh	Beta apoptosis	LANA-H2A inh	RanGTP-Impb inh	UCH37 inh	Calb FLC	Beta2AR agonist	T cruzi repl
13	COc1ccc(S(=O)(=O)N2CCCCCC2)cc1C(=O)N(C)CC(=O)Nc1ccc(F)cc1	1.0	2.3	-1.1	4.4	1.8	-2.6	0.9	3.9
14	CN=c1sc(C(=O)Nc2ccccc2)c(C)n1C	0.6	0.1	2.1	1.8	5.2	-9.9	-9.6	9.4
15	Cc1cc(Cl)c(S(=O)(=O)NCc2ccccc2)cc1OCC(N)=O	0.0	-4.3	5.5	0.6	1.4	4.5	-10.5	-9.6
16	CCCN(C(=O)C1CCN(S(=O)(=O)c2ccc(OC)c(OC)c2)CC1)C1CCS(=O)(=O)C1 (stereo not given)	-0.3	.	2.9	3.7	0.4	-2.7	8.9	-3.9
17	O=C(CN1c2cccc3cccc(c23)S1(=O)=O)Nc1ccccc1F	0.4	.	-0.1	1.5	-49.7	1.5	3.9	10.5
18	CCOc1ccc(OCC(=O)NCc2n[nH]c(=O)c3ccccc23)cc1	1.0	.	2.8	2.8	4.5	1.9	4.0	-3.7
19	CCOC(=O)C1=C(C)NC2=C(C(=O)C(C(=O)OC)C(C)C2)C1c1ccc(OC)c(O)c1 (stereo not given)	1.2	-0.7	-3.5	-2.9	-2.1	18.2	12.7	-4.4
20	CC(=O)Nc1ccc(S(=O)(=O)NC2(C(F)(F)F)C(=O)Nc3c2c(=O)[nH]c(=O)n3C)cc1 (stereo not given)	1.9	-5.5	-4.0	-0.8	3.6	2.2	-9.7	-15.2
21	CC(=O)N(/N=C1\Sc2ccccc2C1=O)c1cccc(C)c1	-0.8	-3.0	2.5	23.3*	.	-1.2	32.0	4.7
22	S=C(Nc1ccccn1)NC1CCCC1	?	-1.1	3.8	0.7	-0.7	-11.7	-1.8	-24.0
23	CCN(CC)C(=O)CCSc1nnc(-c2ccco2)o1	-0.9	-8.2	-4.6	-0.5	-0.4	26.3	-0.7	-0.7
24	COC(=O)c1cc(-c2ccccc2)nc2nc(SC)[nH]c(=O)c12	-0.2	-1.6	-0.4	2.0	-212.1	23.7	-4.0	6.1

# (cont.)
item	SMILES	Bfl-1 A1 inh	Beta apoptosis	LANA-H2A inh	RanGTP-Impb inh	UCH37 inh	Calb FLC	Beta2AR agonist	T cruzi repl
25	CCCc1cc(=O)oc2c(C)c(OC(C)C(=O)NCCN3CCOCC3)ccc12 (stereo not given)	1.9	0.0	4.9	3.0	-21.8	-1.5	-9.5	18.0
26	O=C1NC(c2ccccc2)=N/C1=C/c1ccco1	1.6	-2.9	0.5	3.7	.	-47.7	-14.9	-14.2
27	O=C1COc2ccc3ccccc3c2CN1	1.5	-6.6	0.6	3.2	1.7	-1.7	1.1	0.1
28	Cc1cc(OC(=O)c2ccccc2Br)cc(=O)n1C	0.8	-10.0	-1.1	6.2	4.5	-0.4	-7.1	-8.6
29	Cc1nnc(SCc2cc(=O)[nH]c(N3CCN(C)CC3)n2)s1	0.3	3.1	-1.3	1.1	0.0	-5.6	-5.8	-5.1
30	C=CCc1cccc(CNc2nc3ccccc3n2CCC)c1O	-0.2	5.8	-1.8	0.8	3.0	16.5	2.6	-0.8
31	COc1ccc(CC(=O)Nc2nc3n(n2)C(c2ccccc2)CC(=O)N3)cc1OC (stereo not given)	-0.5	-0.2	1.2	?	0.2	-1.3	2.8	-0.8
32	COc1cc(NC(=O)CCc2nnc3ccc(N4CCN(c5cccc(OC)c5)CC4)nn23)cc(OC)c1	0.6	0.6	0.7	-3.1	-6.6	-6.4	-1.5	6.9
33	CCCn1c(=O)c2c(nc3n2CCN3Cc2ccco2)n(C)c1=O	-1.7	2.6	-5.6	2.8	2.8	-4.6	0.4	-2.1
34	COCCN(C(=O)c1ccccc1F)c1nnc(-c2ccc(OC)cc2)s1	0.9	.	-1.5	-0.5	0.2	-11.5	6.6	4.7
35	O=C(c1ccccc1-c1nc(-c2ccc(F)cc2)no1)N1CCCC1	-0.5	9.7	-5.0	1.3	1.1	3.5	-7.6	4.3
36	CCc1cc(/C(Cc2ccccn2)=N\Nc2ccccc2)c(O)cc1O	-0.7	-9.8	1.4	5.0	.	7.9	3.4	-18.6

37	O=C(CCc1nnc(C2CCCCC2)o1)NCCCOc1cccnc1
38	O=C(N/N=C/c1cccc([N+](=O)[O-])c1)c1cccc(Br)c1
39	COc1ccc(-c2ccnc(-c3ccc(O)cc3)n2)cc1
40	O=C(Cc1ncc(C(F)(F)F)cc1Cl)NNc1cccc(F)n1
41	Cc1cc(C)c(Nc2ncnc(N)n2)c(C)c1

entry no.	37	38	39	40	41
Bfl-1 A1 inh	0.1	-0.1	-0.4	0.1	-0.8
Beta apoptosis	-22.2	7.9	-0.1	0.1	.
LANA-H2A inh	1.9	-7.0	0.4	2.3	3.6
RanGTP-Impb inh	-1.7	-1.4	-2.0	2.2	2.7
UCH37 inh	3.1	.	0.0	4.1	2.5
Calb FLC	-11.2	6.3	-0.5	-8.4	-6.8
Beta2AR agonist	-4.6	-12.5	4.6	-3.6	-8.9
T cruzi repl	-8.7	-8.1	-26.1	-1.7	3.9

42	COCCCNC(=O)CCCn1c(=O)c2ccccc2n(Cc2cccc([N+](=O)[O-])c2)c1=O
43	O=C(O)C1C2C=CC(O2)C1C(=O)NCCc1cccc(Cl)c1 (stereo not given)
44	COc1ccc(CC(=O)OCc2csc(CC(=O)Nc3ccc(C)cc3)n2)cc1
45	CC(=O)Nc1ccc(NC(=O)CCNS(=O)(=O)c2cccc3nsnc23)cc1
46	CC(NCC(=O)NC(=O)NC1CCCC1)c1ccc(Cl)cc1Cl (stereo not given)

entry no.	42	43	44	45	46
Bfl-1 A1 inh	-0.5	1.2	0.8	-0.2	-0.1
Beta apoptosis	-10.6	-10.4	1.3	-7.6	.
LANA-H2A inh	-0.9	4.3	2.9	3.0	-0.6
RanGTP-Impb inh	-2.7	-1.6	.	?	-0.5
UCH37 inh	3.8	2.6	4.5	2.4	-1.7
Calb FLC	5.3	-5.4	.	9.5	-13.4
Beta2AR agonist	2.7	-5.2	16.8	-3.0	-8.1
T cruzi repl	6.3	-3.0	.	-5.8	8.7

47	O=C(C1CC(=O)N(C2CCCC2)C1)N1CCN(c2ccccc2F)CC1 (stereo not given)
48	COC(=O)c1ccc(NC(=O)c2c(Br)cnn2C)cc1
49	Cc1nn(CCOc2ccc(Br)cc2)c(C)c1[N+](=O)[O-]
50	Cc1cc(C)c2cc(CN(CCO)Cc3nnnn3Cc3ccccc3)c(=O)[nH]c2c1
51	Cc1nc(C)n(CCNS(=O)(=O)c2ccc(C)c(C)c2)n1

entry no.	47	48	49	50	51
Bfl-1 A1 inh	-0.4	-0.9	1.3	0.3	0.8
Beta apoptosis	.	-7.7	-4.1	2.4	-1.4
LANA-H2A inh	-1.3	1.0	-0.6	-3.3	0.3
RanGTP-Impb inh	-1.4	2.6	?	-0.4	-2.1
UCH37 inh	7.2	5.8	0.0	-0.4	3.6
Calb FLC	12.7	-3.6	-2.6	-12.2	-7.3
Beta2AR agonist	3.7	1.7	3.5	2.2	1.8
T cruzi repl	-4.5	-3.6	10.6	-2.4	-5.8

52	CCNS(=O)(=O)c1ccc(CCC(=O)N2CCN(c3cc(Cl)ccc3C)CC2)cc1
53	Cc1nn(C2CCS(=O)(=O)C2)c(C)c1C=O (stereo not given)
54	Cc1ccc(C(=O)NN2C(=O)/C(=C/c3cn(C)c4ccccc34)SC2=S)cc1
55	COc1ccccc1C1=CC(=O)C[C@H](c2ccc3c(c2)OCO3)C1
56	CC1CCCCN1C(=O)NC12CC3CC(CC(C3)C1)C2 (stereo not given)
57	Cc1ccccc1NC(=O)c1ccc(S(=O)(=O)C(F)F)cc1

entry no.	52	53	54	55	56	57
Bfl-1 A1 inh	-0.4	0.1	-0.1	0.1	1.0	-0.9
Beta apoptosis	30.3	-9.7	-4.2	2.3	-4.1	-9.1
LANA-H2A inh	-1.3	-1.4	.	9.1	-0.4	3.4
RanGTP-Impb inh	2.1	3.9	.	.	0.6	1.6
UCH37 inh	2.9	1.0	11.3	3.4	2.3	1.8
Calb FLC	-0.1	1.1	.	.	-1.8	9.5
Beta2AR agonist	23.4	-0.4	-23.8	-6.0	3.9	-38.1
T cruzi repl	20.2	-4.4	.	.	-4.6	-7.1

# Compound activity: PubChem BioAssay, several laboratories
